# Assay outcomes deposited in PubChem by Broad Institute.
# HIV Env fusion: inhibitors of HIV Env-mediated cell fusion | HeLa-JRFL Env/CEM21 cell fusion, luciferase | inhibition, % at 12.3 µM | 1.1% of 360,000 active | AID 651610;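 active = mean replicate inhibition score of at least 50 and every replicate individually at or above 50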;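 note: 0% = plate neutral controls and 100% = maraviroc near 300 nM; one replicate is shown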
# Yeast UUG start: alters start codon recognition fidelity in yeast; AID 602363; S. cerevisiae UUG-firefly luciferase reporter, luminescence/redox ratio; activity score, % at 18.7 µM; 0.13% of 350,000 active;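 active = replicate mean at a twofold rise or more, about +100% in these data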;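 note: firefly luciferase made from a UUG start codon reports start codon fidelity; reporter light over untreated wells divided by growth signal over untreated wells; some hits fall short of that in this replicate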
# Active calls of the source: *; [ ] = remark or other dose. Not all compounds are listed (hit frequency here may not be typical).
SMILES,HIV Env fusion,Yeast UUG start
C[C@@H]1CCCCO[C@@H](CN(C)C(=O)Nc2ccccc2)[C@@H](C)CN([C@H](C)CO)C(=O)c2cc(NC(=O)Cc3ccccc3)ccc2O1,-43.3[16.7 µM],-1.7
CNC[C@@H]1Oc2ncc(C#CC3CCCCC3)cc2C(=O)N([C@H](C)CO)C[C@@H]1C,29.5[16.7 µM],2.1
O=C(C[C@@H]1CC[C@H](NC(=O)Cc2cccnc2)[C@H](CO)O1)NCc1ccc2c(c1)OCO2,3.3[16.7 µM],-9.5
COc1ccc(S(=O)(=O)N[C@H]2CC[C@@H](CCNC(=O)c3ccccc3F)O[C@@H]2CO)cc1,9.9[16.7 µM],-2.4
COc1cccc(C#Cc2cnc3c(c2)C(=O)N([C@H](C)CO)C[C@@H](C)[C@H](CN(C)C(=O)C2CCC2)O3)c1,10.7[16.7 µM],1.0
CN1C(=O)c2cc(NC(=O)c3cccs3)ccc2OC[C@@H]2O[C@@H](CC(=O)N3CCOCC3)CC[C@H]21,16.5[16.7 µM],-4.8
O=C(C[C@@H]1C[C@H]2c3cc(NC(=O)Cc4ccncc4)ccc3O[C@H]2[C@@H](CO)O1)NCc1ccc2c(c1)OCO2,-12.9[16.7 µM],-12.9
C[C@@H]1CCCCO[C@@H](CN(C)C(=O)Nc2ccccc2)[C@@H](C)CN([C@@H](C)CO)C(=O)c2cc(NC(=O)NC3CCCCC3)ccc2O1,-14.0[16.7 µM],-5.8
N#C[C@H]1[C@H](c2ccc(C#Cc3ccc(F)cc3)cc2)[C@H](CO)N1C(=O)C1CCCC1,22.9[16.7 µM],3.3
COc1ccc(S(=O)(=O)Nc2ccc3c(c2)C(=O)N([C@@H](C)CO)C[C@@H](C)[C@@H](CN(C)Cc2ccc(-c4ccccc4)cc2)O3)cc1,-7.9[16.7 µM],16.8
C[C@@H]1CN([C@H](C)CO)S(=O)(=O)c2ccc(C#CC(C)(C)O)cc2O[C@@H]1CN(C)C(=O)CN(C)C,-4.5[16.7 µM],4.3
COc1cccc(CNC(=O)C[C@H]2C=C[C@H](NC(=O)C3CCOCC3)[C@@H](CO)O2)c1,-7.6[16.7 µM],-12.7
COC(=O)CCCCCCC(=O)Nc1ccc(NC(=O)CCCC[P+](c2ccccc2)(c2ccccc2)c2ccccc2)cc1,-9.1[16.7 µM],4.5
C[C@H]1CN([C@@H](C)CO)C(=O)c2cc(NC(=O)C3CCCCC3)ccc2O[C@H]1CN(C)CC1CC1,16.6[16.7 µM],-9.4
Cc1noc(C)c1S(=O)(=O)Nc1ccc2c(c1)CC(=O)N([C@@H](C)CO)C[C@H](C)[C@H](CN(C)S(=O)(=O)c1cccs1)O2,9.0[16.7 µM],9.5
COc1ccc(CN(C)C[C@H]2Oc3c(NC(=O)c4nc5ccccc5s4)cccc3C(=O)N([C@H](C)CO)C[C@@H]2C)cc1,1.6[16.7 µM],-1.5
C[C@@H]1CN([C@@H](C)CO)C(=O)Cc2cc(NC(=O)NC3CCCCC3)ccc2O[C@@H]1CN(C)Cc1ccncc1,-1.0[16.7 µM],20.0
C[C@@H]1CCCCO[C@@H](CN(C)C(=O)NC2CCCCC2)[C@H](C)CN([C@@H](C)CO)C(=O)c2cc(NS(=O)(=O)c3ccc(Cl)cc3)ccc2O1,-133.6[16.7 µM],4.5
CC(C)NC(=O)Nc1ccc2c(c1)C(=O)N(C)[C@H]1CC[C@@H](CC(=O)NCC3CCCCC3)O[C@@H]1CO2,19.1[16.7 µM],12.3
C[C@H]1CN([C@@H](C)CO)C(=O)c2cc(Br)cnc2O[C@@H]1CN(C)C(=O)c1cccnc1,-16.0[16.7 µM],-11.1
COc1ccc(NC(=O)N(C)C[C@@H]2Oc3cc(-c4ccc(C)cc4)ccc3S(=O)(=O)N([C@@H](C)CO)C[C@@H]2C)cc1,9.6[16.7 µM],-9.8
Cc1ccc(S(=O)(=O)N(C)C[C@H]2OCCCC[C@H](C)Oc3ccc(NS(=O)(=O)c4cccs4)cc3C(=O)N([C@@H](C)CO)C[C@@H]2C)cc1,17.9[16.7 µM],5.9
C[C@H](CO)N1C[C@H](C)[C@@H](CN(C)Cc2ccccc2F)Oc2ncc(C3=CCCCC3)cc2C1=O,15.6[16.7 µM],-1.7
Cc1ccc(S(=O)(=O)N(C)C[C@H]2Oc3ccc(NC(=O)Nc4ccc5c(c4)OCO5)cc3CC(=O)N([C@H](C)CO)C[C@H]2C)cc1,8.0[16.7 µM],-5.3
C[C@@H]1CN([C@@H](C)CO)C(=O)c2cc(NC(=O)CCC(F)(F)F)ccc2O[C@@H](C)CCCCO[C@@H]1CN(C)C(=O)CCCN(C)C,-1.9[16.7 µM],17.3
Cc1ccc(S(=O)(=O)Nc2ccc3c(c2)C(=O)N([C@@H](C)CO)C[C@@H](C)[C@@H](CN(C)S(=O)(=O)c2ccc(C)cc2)OCCCC[C@@H](C)O3)cc1,-67.0[16.7 µM],8.5
COc1ccccc1CNC(=O)C[C@H]1CC[C@H](NC(=O)CN(C)C)[C@@H](CO)O1,-0.2[16.7 µM],-17.3
C[C@H]1CCCCO[C@H](CN(C)C(=O)C2CCCCC2)[C@@H](C)CN([C@@H](C)CO)C(=O)c2cc(NS(=O)(=O)c3cn(C)cn3)ccc2O1,-0.1[16.7 µM],8.3
COc1cccc(S(=O)(=O)Nc2ccc3c(c2)[C@@H]2C[C@H](CC(=O)N[C@@H](C)c4ccccc4)O[C@H](CO)[C@@H]2O3)c1,-12.0[16.7 µM],9.1
O=C(C[C@H]1CC[C@H](NC(=O)c2ccncc2)[C@@H](CO)O1)Nc1ccccc1,-32.5[16.7 µM],-22.2
C[C@H](CO)N1C[C@H](C)[C@H](CN(C)C(=O)NC2CCCCC2)Oc2c(NC(=O)Nc3ccc(F)cc3)cccc2C1=O,-3.2[16.7 µM],4.3
C[C@@H]1CN([C@H](C)CO)C(=O)c2cc(C#Cc3ccccc3F)cnc2O[C@H]1CN(C)S(=O)(=O)c1ccccc1F,32.1[16.7 µM],-12.6
COc1ccc(CN(C)C[C@@H]2OCCCC[C@@H](C)Oc3ccc(NS(=O)(=O)c4ccc(OC)cc4)cc3C(=O)N([C@H](C)CO)C[C@H]2C)cc1,-102.2[16.7 µM],18.4
COc1ccc(CN(C)C[C@H]2OCCCC[C@H](C)Oc3ccc(NS(=O)(=O)c4ccc(F)cc4)cc3C(=O)N([C@@H](C)CO)C[C@@H]2C)cc1,5.9[16.7 µM],24.5
O=C(Nc1ccc2c(c1)OCO2)N[C@@H]1CC[C@H](CCNC(=O)C2CCCC2)O[C@H]1CO,-16.5[16.7 µM],-1.7
CCCC#Cc1cnc2c(c1)C(=O)N([C@H](C)CO)C[C@H](C)[C@@H](CN(C)S(=O)(=O)c1cn(C)cn1)O2,-30.4[16.7 µM],-3.0
C[C@@H]1CCCCO[C@@H](CN(C)C(=O)Cc2ccccc2)[C@H](C)CN([C@@H](C)CO)C(=O)c2cc(NC(=O)CCCCCC(=O)Nc3ccccc3N)ccc2O1,9.3[16.7 µM],3.6
C[C@H](CO)N1C[C@H](C)[C@H](CN(C)Cc2ccccc2)Oc2cc(C#CC3CC3)ccc2S1(=O)=O,23.4[16.7 µM],10.4
CCCN(C)C[C@@H]1Oc2cc(/C=C/c3ccccc3)ccc2S(=O)(=O)N([C@@H](C)CO)C[C@H]1C,17.7[16.7 µM],16.5
C[C@H]1CN([C@@H](C)CO)C(=O)c2cccc(NC(=O)c3ccncc3)c2O[C@H]1CN(C)Cc1ccc(C(F)(F)F)cc1,17.3[16.7 µM],5.2
C[C@@H]1CCCCO[C@@H](CN(C)Cc2ccc(C(=O)O)cc2)[C@H](C)CN([C@H](C)CO)C(=O)c2cc(NC(=O)Nc3cccc4ccccc34)ccc2O1,-28.3[16.7 µM],25.5
O=C(CCN1CCCCC1)N[C@@H]1CC[C@H](CCn2cc(-c3ccccc3)nn2)O[C@@H]1CO,-8.3[16.7 µM],5.7
COc1cccc(C(=O)Nc2ccc3c(c2)C(=O)N(C)[C@H]2CC[C@H](CC(=O)NCC4CC4)O[C@@H]2CO3)c1,11.0[16.7 µM],7.2
COc1ccc(S(=O)(=O)N(C)C[C@H]2OCCCC[C@@H](C)Oc3ccc(NC(=O)Nc4c(C)noc4C)cc3C(=O)N([C@@H](C)CO)C[C@@H]2C)cc1,8.6[16.7 µM],3.8
C[C@H](CO)N1C[C@H](C)[C@H](CN(C)S(=O)(=O)c2ccc(F)cc2)Oc2ccc(NC(=O)Nc3cccc4ccccc34)cc2C1=O,36.4[16.7 µM],-3.8
C[C@H]1CCCCO[C@@H](CN(C)C)[C@@H](C)CN([C@@H](C)CO)C(=O)c2cc(NS(C)(=O)=O)ccc2O1,9.7[16.7 µM],-0.9
C[C@@H]1CCCCO[C@@H](CN(C)C(=O)c2ccncc2)[C@H](C)CN([C@H](C)CO)C(=O)c2cc(NC(=O)Cc3ccccc3)ccc2O1,14.5[16.7 µM],-8.2
C[C@H](CO)N1C[C@H](C)[C@H](CN(C)S(C)(=O)=O)Oc2ccc(NC(=O)c3ccncc3)cc2CC1=O,-10.3[16.7 µM],-3.0
COc1ccccc1NC(=O)N[C@H]1CC[C@@H](CCn2cc(-c3cccnc3)nn2)O[C@H]1CO,-1.3[16.7 µM],-16.1
C[C@H](CO)N1C[C@H](C)[C@H](CN(C)CC2CCCCC2)Oc2ccc(NS(C)(=O)=O)cc2C1=O,9.7[16.7 µM],4.5

# Sorted by the number under Yeast UUG start (descending): three from the list above.
SMILES,HIV Env fusion,Yeast UUG start
C[C@H]1CCCCO[C@H](CN(C)C(=O)C2CCCCC2)[C@@H](C)CN([C@@H](C)CO)C(=O)c2cc(NS(=O)(=O)c3cn(C)cn3)ccc2O1,-0.1[16.7 µM],8.3
C[C@@H]1CCCCO[C@@H](CN(C)C(=O)NC2CCCCC2)[C@H](C)CN([C@@H](C)CO)C(=O)c2cc(NS(=O)(=O)c3ccc(Cl)cc3)ccc2O1,-133.6[16.7 µM],4.5
COc1cccc(C#Cc2cnc3c(c2)C(=O)N([C@H](C)CO)C[C@@H](C)[C@H](CN(C)C(=O)C2CCC2)O3)c1,10.7[16.7 µM],1.0

# Three of the compounds above, with bars between the fields.
structure | HIV Env fusion | Yeast UUG start
O=C(CCN1CCCCC1)N[C@@H]1CC[C@H](CCn2cc(-c3ccccc3)nn2)O[C@@H]1CO | -8.3[16.7 µM] | 5.7
COc1cccc(C(=O)Nc2ccc3c(c2)C(=O)N(C)[C@H]2CC[C@H](CC(=O)NCC4CC4)O[C@@H]2CO3)c1 | 11.0[16.7 µM] | 7.2
COc1ccc(S(=O)(=O)N(C)C[C@H]2OCCCC[C@@H](C)Oc3ccc(NC(=O)Nc4c(C)noc4C)cc3C(=O)N([C@@H](C)CO)C[C@@H]2C)cc1 | 8.6[16.7 µM] | 3.8

# Next records follow.
SMILES,HIV Env fusion,Yeast UUG start
C[C@H](CO)N1C[C@H](C)[C@H](CN(C)C(=O)Nc2cccc3ccccc23)Oc2c(NS(=O)(=O)c3ccc(Cl)cc3)cccc2C1=O,-10.0[16.7 µM],6.9
C[C@@H]1CN([C@@H](C)CO)C(=O)c2cccc(NS(=O)(=O)c3ccc(F)cc3)c2O[C@H]1CN(C)C(=O)Nc1ccc(F)cc1,2.0[16.7 µM],1.2
C[C@H]1CN([C@@H](C)CO)C(=O)c2cc(C#CC3CC3)cnc2O[C@H]1CN(C)Cc1cccc(C(=O)O)c1,-10.6[16.7 µM],5.7
CC(C)C#Cc1cnc2c(c1)C(=O)N([C@@H](C)CO)C[C@@H](C)[C@@H](CN(C)C(=O)c1cccc(F)c1)O2,-2.9[16.7 µM],0.7
C[C@H](CO)N1C[C@H](C)[C@@H](CN(C)S(=O)(=O)c2cn(C)cn2)Oc2cc(C#Cc3ccc(F)cc3)ccc2S1(=O)=O,-81.1[16.7 µM],20.5
Cc1ccc(S(=O)(=O)N(C)C[C@@H]2Oc3ccc(NC(=O)CCC(F)(F)F)cc3C(=O)N([C@H](C)CO)C[C@@H]2C)cc1,16.2[16.7 µM],2.7
O=C(Nc1ccc(C(F)(F)F)cc1)N[C@H]1CC[C@H](CCNC(=O)c2ccccc2F)O[C@H]1CO,24.1[16.7 µM],3.8
C[C@@H]1CCCCO[C@H](CN(C)Cc2ccc(Cl)c(Cl)c2)[C@@H](C)CN([C@H](C)CO)C(=O)c2cc(NC(=O)CCC(F)(F)F)ccc2O1,7.7[16.7 µM],9.5
CCS(=O)(=O)Nc1ccc2c(c1)C(=O)N(C)C[C@@H](OC)[C@@H](C)CN(C(=O)C1CCC1)[C@@H](C)CO2,45.3[16.7 µM],3.7
Cc1ccc(S(=O)(=O)N(C)C[C@H]2Oc3ccc(NS(=O)(=O)c4ccc(F)cc4)cc3CC(=O)N([C@@H](C)CO)C[C@H]2C)cc1,1.8[16.7 µM],17.1
C[C@H]1CN([C@@H](C)CO)C(=O)c2cc(N(C)C)ccc2O[C@H]1CN(C)S(=O)(=O)c1cn(C)cn1,11.0[16.7 µM],-7.9
O=C(CN1CCOCC1)NCC[C@H]1CC[C@H](NC(=O)Nc2ccccc2)[C@@H](CO)O1,-0.4[16.7 µM],-2.2
C[C@@H]1CCCCO[C@@H](CN(C)S(C)(=O)=O)[C@H](C)CN([C@H](C)CO)C(=O)c2cc(N(C)C)ccc2O1,-9.2[16.7 µM],-0.9
O=C(NCC[C@@H]1CC[C@@H](NC(=O)C2CCC2)[C@H](CO)O1)c1cc(Cl)cc(Cl)c1,-0.5[16.7 µM],3.2
O=C(Nc1cccc(Cl)c1)N[C@@H]1CC[C@H](CCNC(=O)C2CCCCC2)O[C@@H]1CO,-20.2[16.7 µM],-4.8
C[C@@H]1CCCCO[C@H](CN(C)Cc2ccc3c(c2)OCO3)[C@H](C)CN([C@@H](C)CO)C(=O)c2cc(NC(=O)Nc3ccc(C(F)(F)F)cc3)ccc2O1,15.0[16.7 µM],9.2
